Compound activity: PubChem, several laboratories
Ecoli growth: E. coli growth inhibition, primary screen, OD600; Escherichia coli growth, 23 h; hits give low values; OD600 absorbance (concentration not given with the values); actives 0.21% (n = 330,000);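 active = OD600 absorbance below the run mean of sample wells minus 3.6 SD, in any replicate, cut at about 0.56 in these data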;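 note: stock transfer was 300 nL into about 60 µL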
UCH37 inh: inhibitors of human UCH37 deubiquitinase, primary screen, biochemical, Ub-AMC cleavage, fluorescence; purified proteasome/UCH37; inhibition, % (concentration not given with the values); actives 0.33% (n = 330,000);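 active = mean of two replicates above 20%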;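 note: 0% = compound-free wells with enzyme and 100% = wells lacking proteasome; stock transfer was 100 nL into about 20 µL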
Target sequence (Q9Y5K5 whole entry, looked up): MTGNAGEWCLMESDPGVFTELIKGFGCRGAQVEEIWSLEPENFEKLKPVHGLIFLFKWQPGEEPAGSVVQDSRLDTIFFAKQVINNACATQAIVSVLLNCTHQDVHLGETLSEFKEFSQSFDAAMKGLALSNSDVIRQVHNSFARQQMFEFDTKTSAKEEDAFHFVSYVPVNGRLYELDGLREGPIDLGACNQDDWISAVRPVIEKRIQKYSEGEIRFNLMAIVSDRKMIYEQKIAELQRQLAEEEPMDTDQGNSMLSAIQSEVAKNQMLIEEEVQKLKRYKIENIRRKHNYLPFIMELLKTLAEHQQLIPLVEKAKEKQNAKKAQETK
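system = Proteasome-associated human UCH37 deubiquitinase | amount = 0.15 nM proteasome as dispensed | medium = pH 7.4 Tris-HCl (50 mM) with ovalbumin, ATP-MgCl2, DTT | incubation = 30 min preincubation with enzyme, 25 min cleavage at room temperature | detection = AMC fluorescence 355/460 nm | read-out basis = percent inhibition | controls = no-proteasome and no-compound wells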
T cruzi repl: inhibitors of intracellular T. cruzi growth, primary screen, luminescence, NIH3T3 host cells; T. cruzi beta-gal in NIH3T3, 90 h; actives 1.4% (n = 300,000); inhibition, % (no concentration beside the values);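 active = mean inhibition across valid replicates above about 55%, limit read from the data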;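 note: signal also drops with host cell toxicity which is not excluded here; 0% = plate median of DMSO wells and 100% = zero luminescence signal; higher percent means less beta-gal luminescence so fewer parasites; stock transfer was 50 nL into about 50 µL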
FGF22 binding: binders of human FGF22 protein, primary screen, FGF22 synaptogenesis inhibitor project, biophysical, thermal shift, single point. recombinant FGF22 thermal shift, SYPRO orange fluorescence; percent of sucrose octasulfate shift, DMSO zero. calls only at 9.99 µM. actives 1.5% (n = 340,000);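 active = melting point raised past a set limit in the mean and every replicate; three in four hits are not shown here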
Target sequence (Q9HCT0 whole entry, looked up): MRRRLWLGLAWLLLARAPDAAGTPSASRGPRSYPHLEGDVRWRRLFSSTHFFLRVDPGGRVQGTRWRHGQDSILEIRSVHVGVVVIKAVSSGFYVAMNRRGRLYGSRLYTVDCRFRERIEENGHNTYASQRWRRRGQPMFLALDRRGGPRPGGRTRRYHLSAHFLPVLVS
Ecoli rRNA inh: reduced GFP signal of wild-type E. coli, primary screen, bacterial rRNA inhibitor project, GFP/RFP fluorescence, OD600, single point; actives 1.6% (n = 350,000); E. coli WT GFP vs humanized-ribosome RFP mutants, 24 h; hits give low values; DMSO median 0, no signal -100; GFP signal change (wild-type ribosome), % (concentration not given with the values);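 active = significant combined selectivity score with lowered wild-type GFP, culture density cut under 30%, mutant RFP and density less affected; inactive = any of these conditions unmet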; note: one replicate is shown; some compounds called inactive have numbers as strong as hits
AF4-AF9 inh: inhibitors of AF4 peptide binding to AF9, primary screen, biochemical, AlphaScreen, biotin-AF4 peptide, FLAG-AF9, single point. Protein AF-9 (Homo sapiens), P42568. inhibition, % at 10 µM. actives 0.47% (n = 350,000);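 active = every replicate reaching a set inhibition limit, whatever the replicate mean, cut at about 25% in these data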;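 note: 0% = plate neutral control median and 100% = total signal loss; the record names both 10 and 1 µM as test concentration; the first replicate is given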
Target sequence (P42568 whole entry, looked up): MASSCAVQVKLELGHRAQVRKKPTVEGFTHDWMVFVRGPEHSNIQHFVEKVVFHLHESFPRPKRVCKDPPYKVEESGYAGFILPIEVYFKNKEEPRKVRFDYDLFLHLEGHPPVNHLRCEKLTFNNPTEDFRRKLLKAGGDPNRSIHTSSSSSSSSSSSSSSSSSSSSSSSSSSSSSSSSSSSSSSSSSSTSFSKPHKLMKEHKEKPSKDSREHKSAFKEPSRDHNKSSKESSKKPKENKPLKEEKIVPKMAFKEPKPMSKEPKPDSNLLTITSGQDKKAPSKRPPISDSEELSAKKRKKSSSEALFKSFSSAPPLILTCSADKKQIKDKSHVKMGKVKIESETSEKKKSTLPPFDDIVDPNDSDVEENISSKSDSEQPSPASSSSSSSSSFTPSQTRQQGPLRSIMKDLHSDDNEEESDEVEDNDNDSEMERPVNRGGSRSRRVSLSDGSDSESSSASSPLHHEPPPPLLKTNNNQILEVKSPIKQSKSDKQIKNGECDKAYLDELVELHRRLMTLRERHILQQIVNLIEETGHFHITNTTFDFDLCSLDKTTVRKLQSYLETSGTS
Bfl-1 A1 inh: caspase 3/7 activation in MEF A1-2A-BIM cells, primary screen, A1 inhibitor project, cell-based, luminescence, HTS; Caspase-Glo 3/7 luminescence, 3 h; percent of clofoctol response, vehicle zero; caspase activation, % (no concentration beside the values); actives 0.066% (n = 330,000);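 active = over half of replicate activation scores above 10%, or exactly half above 10 with the replicate mean above 10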;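 note: wells of about 30 µL received 50 nL stock; many hits fall short of the cut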
Beta apoptosis: inhibitors of cytokine-induced beta cell apoptosis, primary screen, luminescence; INS-1E cytokine-induced death, ATP luminescence, 48 h; percent of positive-control rescue, neutral wells zero; AID 435005, 2010; actives 0.8% (n = 300,000); protection from apoptosis, % (concentration not given with the values);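 active = all replicates at 75% or more, or half of them and the mean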;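 note: 0% = cytokine-treated negative control wells and 100% = positive control rescue; higher means more ATP so stronger rescue from cytokine killing; wells of about 40 µL received 100 nL stock; the first replicate is given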
Ecoli rRNA inh OD600: second read-out of Ecoli rRNA inh, no call of its own (marks repeat the call); OD600 change, %; measured here: OD600 growth;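 optical density of the mix in the first replicate; 0 = DMSO median and -100 = no signal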
Ecoli rRNA inh RFP: also measured in Ecoli rRNA inh; calls as there; RFP signal change, %; measured here: RFP humanized mutant strains;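 first replicate; 0 = DMSO median and -100 = no signal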
Numbers without * were called inactive; i = inactive; . = no result given. This is a subset. The share of hits here may be higher or lower than overall.

SMILES	Ecoli growth	UCH37 inh	T cruzi repl	FGF22 binding	Ecoli rRNA inh	Ecoli rRNA inh OD600	Ecoli rRNA inh RFP	AF4-AF9 inh	Bfl-1 A1 inh	Beta apoptosis
Cc1ccc(N2CC(C(=O)Nc3ccc(S(=O)(=O)NCC4CCCO4)cc3)CC2=O)cc1 (centres undefined)	0.7	3.5	-24	i	11	13	-1.6	0.1	0.2	0
COc1ccc(C(=O)NCc2nnc(SCC(=O)NC3CCCCC3)n2C)cc1	0.68	2.1	-5	i	3	12	-1.3	0.4	-0.4	-7
CC1CN(CC(=O)Nc2ccccc2Sc2ccccc2)CC(C)O1 (centres undefined)	0.69	2.6	1	.	.	.	.	.	-1.6	0
Cc1ccc(NC(=O)c2ccc(OC(=O)COc3ccc(Cl)c(C)c3)cc2)cc1	0.65	0.4	-29	.	.	.	.	.	-3.0	3
COc1ccc2cc(C#N)c(N3CCN(Cc4nnnn4CCC(C)C)CC3)nc2c1	0.72	-18	2	.	.	.	.	.	0.0	15
C=CCN1C(=O)c2ccc(C(=O)N3CCN(S(=O)(=O)c4cccc(F)c4)CC3)cc2C1=O	0.71	0.9	-4	i	7	14	-1.7	5.6	0.1	-1
O=C(N1CCCC1)C12CC3CCC(CC(C3)C1)C2	0.65	4.0	-10	i	.	.	.	0.1	0.0	-12
COc1ccc(-c2nnc(NC(=O)C3=COCCO3)o2)cc1	0.63	3.9	-19	i	16	3	-3.3	3.0	0.7	-4
O=P(O)(O)COc1ccccc1P(=O)(c1ccccc1)c1ccccc1	0.68	1.7	-1	.	.	.	.	.	0.9	-5
CCSc1nnc(NC(=O)Cc2cccc(OC)c2)s1	0.7	1.7	0	.	.	.	.	.	-0.2	-1
COC(=O)CN(c1cc(C(F)(F)F)ccc1Cl)S(C)(=O)=O	0.68	-1.8	2	.	.	.	.	.	0.8	.
COc1cccc(NC(=O)c2ccc3c(c2)CCCC3)c1	0.66	4.1	11	i	-14	-24	-0.3	-1.4	-8.3	1
CCCn1c(CN2CCN(C)CC2)nc2ccccc21	0.73	4.0	.	.	.	.	.	.	-0.9	-8
O=c1cc(CNCCCO)c2ccccc2[nH]1	0.66	-0.5	-1	.	.	.	.	.	0.1	3
O=C(Nc1ccccc1)NC1CCN(Cc2ccccc2)CC1	0.7	0.8	46	.	.	.	.	.	0.3	-3
COC(=O)C1C(c2ccccc2)NC(=O)NC1(O)C(F)(F)Cl (centres undefined)	0.73	2.8	0	i	7	6	-5.5	-2.1	0.2	-7
CNC(=O)CSc1nnc(C2CC2)n1-c1ccccc1	0.72	0.5	-20	.	-1	3	3.9	-0.1	0.9	-3
Nn1c(=O)c2ccccc2n2c(SCc3ccccc3)nnc12	0.78	-2.0	5	.	.	.	.	.	-0.3	4
O=C(OCc1nnc(-c2ccccc2)o1)c1cc(S(=O)(=O)N2CCOCC2)c(Cl)cc1Cl	0.75	0.5	-27	.	.	.	.	.	-1.9	-2
CC(=O)N/C(=N/c1nc(C)cc(C)n1)Nc1ccc(F)cc1F	0.71	4.0	4	i	6	6	0.2	0.8	0.0	5

4 records picked at random from those above:
SMILES	Ecoli growth	UCH37 inh	T cruzi repl	FGF22 binding	Ecoli rRNA inh	Ecoli rRNA inh OD600	Ecoli rRNA inh RFP	AF4-AF9 inh	Bfl-1 A1 inh	Beta apoptosis
O=C(Nc1ccccc1)NC1CCN(Cc2ccccc2)CC1	0.7	0.8	46	.	.	.	.	.	0.3	-3
O=c1cc(CNCCCO)c2ccccc2[nH]1	0.66	-0.5	-1	.	.	.	.	.	0.1	3
COc1cccc(NC(=O)c2ccc3c(c2)CCCC3)c1	0.66	4.1	11	i	-14	-24	-0.3	-1.4	-8.3	1
COC(=O)CN(c1cc(C(F)(F)F)ccc1Cl)S(C)(=O)=O	0.68	-1.8	2	.	.	.	.	.	0.8	.

Next results follow:
SMILES	Ecoli growth	UCH37 inh	T cruzi repl	FGF22 binding	Ecoli rRNA inh	Ecoli rRNA inh OD600	Ecoli rRNA inh RFP	AF4-AF9 inh	Bfl-1 A1 inh	Beta apoptosis
Cc1noc(C)c1COc1ccc(C(=O)NCCc2ccccn2)cc1	0.74	0.5	-25	i	-9	-12	-1.6	0.1	-0.4	0
C[C@]12CC[C@H](O)CC1=CCC1C2CC[C@@]2(C)C1CC[C@@H]2NC(=O)[C@@H](N)Cc1cnc[nH]1 (some centres undefined)	0.69	2.6	.	i	3	23	11	1.5	.	.
Cc1cc(C)c2nc3sc(C(=O)N4CCOCC4)c(N)c3cc2c1	0.69	4.4	27	i	-5	-10	10	17	0.4	-7
CCN(CC)S(=O)(=O)c1cc(NC(=O)COC(=O)CCC(=O)c2cccs2)ccc1C	0.66	4.6	-3	i	-4	-2	2.8	-0.5	-0.2	1
CCCCNc1nc(-c2ccccc2)cc(C(F)(F)F)c1C(N)=O	0.65	-38	33	i	-14	-21	3.4	-2.4	-1.3	-3
CCOc1cccc(/C(O)=C2/C(=O)C(=O)N(CCOC)C2c2ccco2)c1 (centres undefined)	0.68	13	4	.	.	.	.	.	1.5	.
O=C(NCC1CCCO1)c1cccc(NC(=O)c2ccco2)c1 (centres undefined)	0.71	2.4	-5	.	.	.	.	.	0.4	-7
O=C(N/N=C/c1c[nH]c2ccccc12)c1cc(-c2ccccc2)n[nH]1	.	.	7	i	-34*	-21*	1.9*	4.7	0.3	4
COCn1c(COc2ccccc2)nc2ccccc21	0.72	2.0	-1	.	.	.	.	.	-4.7	1
COc1cccc(C(C(=O)NC(C)(C)C)N(CCC(C)C)C(=O)CCC(=O)Nc2cc(C)on2)c1OC (centres undefined)	0.67	1.2	-4	i	6	4	3.2	-1.6	0.0	0
Cc1ccc([C@H]2C(C(=O)O)=CC[C@@H](c3ccc(C(C)C)cc3)N2S(=O)(=O)c2ccc(C)cc2)cc1	0.67	6.0	.	i	-9	-26	-3.3	-3.7	0.4	-6
CN(C)c1nc(N/N=C/c2c[nH]c3ccccc23)nc(N2CCOCC2)n1	.	.	21	i	7	1	1.3	5.0	0.4	-4
Cc1cc(N2CCN(C(c3ccccc3)c3ccccc3)CC2)n2ncnc2n1	0.65	3.9	-8	.	.	.	.	.	0.2	.
O/N=C(/CCc1ccccc1)c1ccc2c(c1)OCCO2	.	.	-7	i	-25*	-9.7*	-7.4*	8.4	-4.4	-15
CCOC(=O)c1sc(NC(=O)CSc2n[nH]c(CC)n2)nc1C	0.63	1.2	-7	i	-4	1	-0.4	-1.3	1.0	1
O=C(NC1CCCCC1)C(c1cccnc1)N(C(=O)CCl)c1ccccc1Cl (centres undefined)	0.66	-0.1	-9	i	21	13	5.7	-2.6	0.0	-8
O=C(NCc1nnc(SCC(=O)N2CCC(Cc3ccccc3)CC2)o1)c1ccco1	0.69	4.2	30	i	-23*	-18*	-1.2*	3.9	1.0	-3
CC1(C)OC(=O)C(=Cc2ccc[nH]2)C(=O)O1	0.68	7.2	-18	i	0	12	-0.4	-0.7	-0.5	-10
CCCCSc1cnn(-c2ccccc2)c(=O)c1SCCCC	0.7	4.9	32	.	.	.	.	.	1.4	7
O=C(CSCc1ccccc1)Nc1ccc2c(c1)C(=O)NC2=O	0.68	-25	3	i	2	-20	-1.6	-0.7	0.0	-6
CCCn1c2ccccc2c2cnn(CC(=O)NCCN(CC)CC)c(=O)c21	0.63	-20	14	i	-4	-8	2.6	-2.3	1.3	-6
CN1CCN(c2ccc(C(F)(F)F)cc2NC(=O)Nc2ccccc2)CC1	0.64	6.7	50	i	-27	-45	-21	3.6	1.6	7
Cc1ccc(C(=O)Nc2ncc(C)s2)o1	0.61	3.3	-23	.	.	.	.	.	-8.1	-1
CC1=C(C(=O)OCC2CCCO2)C(c2ccccc2)NC(=O)N1 (centres undefined)	0.68	-1.2	-3	i	7	7	3.7	1.9	0.0	1
O=C(CNC(=O)c1cccnc1)N/N=C/c1ccc(O)cc1O	.	.	6	i	-2	-5	-3.5	-23	1.1	0
CN1CCCC(OC(=O)c2ccc(S(=O)(=O)N(C)C)cc2)C1 (centres undefined)	0.68	4.1	3	i	6	13	0.5	-0.7	1.1	-6
Cc1ccc(S(=O)(=O)N2CCOCC2)cc1NCC(=O)Nc1ccc(OC(F)(F)F)cc1	0.74	0.4	.	i	3	11	-0.8	0.0	-1.0	-2
[O-]/[N+](=C\c1ccc(F)cc1)c1ccccc1	0.69	1.2	-2	.	.	.	.	.	-1.6	-1
CC(C)(C)C(=O)OCOC(=O)[C@@H]1N2C(=O)[C@@H](N=CN3CCCCCC3)[C@H]2SC1(C)C	.	2.0	.	i	.	.	.	1.2	0.0	.
CC1CCN(S(=O)(=O)c2ccc(Cl)cc2Br)CC1	0.69	1.8	6	.	.	.	.	.	1.1	-6
CCOc1ccc(CN2CCN(CCCc3ccccc3)CC2CCO)cc1 (centres undefined)	0.66	0.9	17	i	1	1	3.3	5.4	1.0	.
COc1ccc(C(=O)O/N=C(\N)Cc2ccc([N+](=O)[O-])cc2)c(OC)c1	0.63	1.9	11	i	3	4	2.6	.	0.0	5
O=C(COc1cccnc1[N+](=O)[O-])c1ccc(Cl)s1	0.69	4.0	12	i	11	5	6.5	-6.4	-1.4	-9
O=C(Nc1ccc(N2CCOCC2)cc1)c1cc(-n2cnnc2)ccc1Cl	0.73	3.0	-11	i	7	6	-1.0	3.1	0.1	2
Cc1ccc(CCNC(=O)C2CCN(S(=O)(=O)c3cccc4nonc34)CC2)cc1	0.73	5.8	6	.	.	.	.	.	-0.1	-7
N#Cc1ccccc1NC(=O)CN1C(=O)NC(Cc2c[nH]c3ccccc23)C1=O (centres undefined)	0.7	1.6	.	i	11	9	0.3	0.3	.	.
CCOc1cccc(C2C(C(=O)c3ccc(C)o3)=C(O)C(=O)N2CCCn2ccnc2)c1 (centres undefined)	0.67	5.2	-8	i	10	13	0.4	2.2	-0.6	.
CCCN(CC(=O)Nc1ccccc1OC)C(=O)CSc1nc(C)cc(C)n1	0.68	1.2	7	i	2	9	-0.6	-0.5	0.5	1
CC1CCc2nc(NCCO)nc(C(F)(F)F)c2C1 (centres undefined)	0.66	3.7	0	.	.	.	.	.	-0.1	1
Cn1c(SCC(=O)N2CCc3ccccc32)nnc1C1CC1	0.7	5.5	-4	.	.	.	.	.	1.7	-2

3 compounds already listed, ordered by length of the SMILES, smallest number first:
SMILES	Ecoli growth	UCH37 inh	T cruzi repl	FGF22 binding	Ecoli rRNA inh	Ecoli rRNA inh OD600	Ecoli rRNA inh RFP	AF4-AF9 inh	Bfl-1 A1 inh	Beta apoptosis
CC1CCc2nc(NCCO)nc(C(F)(F)F)c2C1 (centres undefined)	0.66	3.7	0	.	.	.	.	.	-0.1	1
Cn1c(SCC(=O)N2CCc3ccccc32)nnc1C1CC1	0.7	5.5	-4	.	.	.	.	.	1.7	-2
N#Cc1ccccc1NC(=O)CN1C(=O)NC(Cc2c[nH]c3ccccc23)C1=O (centres undefined)	0.7	1.6	.	i	11	9	0.3	0.3	.	.
